# VDR inh = vitamin D3 receptor (human) inhibition. VDR-SRC2-3 peptide fluorescence polarization, 2 h. 400,000 compounds, 0.93% hits. AID 504847. P11473. Potency, µM, for inactives: max response, negative = inhibition, actives largely listed as inhibitors; active means well fitted inhibition curve with a large enough effect; inconclusive means small, poorly fitted or top-dose-only effect, or another doubt; inactive means no such curve, though single readings can be large or run the other way; further: series mostly up to about 120 µM
# Target sequence (P11473 whole entry, looked up): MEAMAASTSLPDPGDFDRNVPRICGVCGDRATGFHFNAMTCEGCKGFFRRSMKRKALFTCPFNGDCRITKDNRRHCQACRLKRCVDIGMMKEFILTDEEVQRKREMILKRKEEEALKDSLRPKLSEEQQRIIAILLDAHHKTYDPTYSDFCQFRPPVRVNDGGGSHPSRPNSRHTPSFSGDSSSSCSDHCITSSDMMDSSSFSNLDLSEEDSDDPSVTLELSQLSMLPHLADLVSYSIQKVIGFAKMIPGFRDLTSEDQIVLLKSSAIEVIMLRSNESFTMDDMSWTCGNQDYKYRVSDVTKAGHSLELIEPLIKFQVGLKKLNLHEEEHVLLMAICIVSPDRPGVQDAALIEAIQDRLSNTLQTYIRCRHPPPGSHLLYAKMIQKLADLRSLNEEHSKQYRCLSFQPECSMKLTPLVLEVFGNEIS
#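 After 23 nl compound addition and a short centrifugation, plates sat for 2 hours at ambient temperature; polarization of fluorescence then indicated loss of VDR binding to peptide SRC2-3.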
# * marks the source's active call; other numbers are inactive results; ? = inconclusive; & = joins results of further samples. On the % scale 0 is the no-effect control and ±100 the full control effect; potency means the concentration at half of the fitted maximal effect. The list is partial; the hit share may differ from the screen's.
Structure | VDR inh
COC(=O)c1cn(Cc2cc(OC)ccc2OC)cc(F)c1=O | -5.1%
COCC(=O)N1CCC2(CC1)CN(Cc1nccs1)C2 | -3.9%
CCC1(CC)Cc2ccccc2C2=C(C(=O)N3CCCCC3)C(=O)C(=O)N21 | -3.3%
CC(=O)Nc1ccc(N2C(=O)CSC2c2ccc([N+](=O)[O-])cc2)cc1 (stereo not given) | -4.8%
CCC(C)[C@H](NC(=O)[C@@H]1Cc2ccccc2CN1C(=O)OC(C)(C)C)C(=O)NCC1CCC(C(=O)O)CC1 (stereo not given in full) | -7.5%
Cc1cc(C(=O)Nc2ccc3c(c2)OCCO3)c(C)o1 | -10.1%
O=C(O)c1ccccc1OCCOc1ccccc1 | -16.6%
CC(NC(=O)C1CCCC1)c1ccccc1 (stereo not given) | 9.1%
COc1ccc(NC(=O)Nc2ccccc2SC)cc1 | -8.3%
CC1CCC(NC(=O)CSc2nnc(-c3cccnc3)o2)CC1 (stereo not given) | 0.0%
Brc1ccccc1Cn1c(-c2cncs2)nc2ccccc21 | -2.5%
Cc1onc(-c2c(Cl)cccc2Cl)c1C(=O)N=C(N)N1CCCC1 | 7.8%
CCOC(=O)C(NC(=O)c1ccccc1Cl)(Nc1sc2c(c1C(N)=O)CCC2)C(F)(F)F (stereo not given) | -6.4%
CCCn1cnc2c(SCc3ccccc3Cl)nc(N)nc21 | 4.2%
CC(C)CC(=O)C(=O)O | 0.7%&-17.0%
CCOC(=O)C(C)/C(C)=N/NC(=O)c1cc2ccccc2cc1O (stereo not given) | 5.2%
Cc1ccccc1NC(=O)CCSc1nnnn1-c1ccccc1 | 3.5%
Cc1c(Br)c(-c2n[nH]c(=S)n2Cc2ccco2)nn1C | -1.7%
O=C(NCCCO)c1ccc(CSc2nc3ccccc3c(=O)[nH]2)cc1 | 14.9%
CSc1ccc(C2C(C(=O)Nc3ccccc3)=C(C)Nc3nc4ccccc4n32)cc1 (stereo not given) | ?
COc1ccc(CN2CCN(Cc3ccc(OC)c(OC)c3OC)CC2)cc1 | 2.5%
Cc1nn(C)cc1CNC(=O)Nc1ccc(Cl)c(Cl)c1 | -1.6%
C=CC[C@@H](CC(=O)N[C@@H](CO)Cc1ccccc1)C(=O)NC[C@@H](OC(=O)[C@@H](CC=C)CC(=O)OC(C)(C)C)c1ccccc1 | 2.2%
COC(=O)c1ccc(-c2ccc([C@H]3[C@H]4C=CC[C@@H](C)[C@@H]4C(=O)N3Cc3ccccc3)c(F)c2)cc1 | 0.8%
Nc1ccc(N2CCCCC2)cc1N1CCCCC1 | -4.4%

# Other entries follow:
Structure | VDR inh
COc1ccc(S(=O)(=O)NCCc2nnc3ccc(SCC(=O)Nc4cc(C)cc(C)c4)nn23)cc1 | 7.3%
O=c1cc(NCc2ccccc2)nc2ccccn12 | 10.1%
COc1cc(/C=C2/C(=O)NN(c3ccc(F)cc3)C2=O)cc([N+](=O)[O-])c1O | -24.2%
Cc1ccc2nc3c(c(Nc4ccccc4)c2c1)CCC3 | 4.5%
CN1C(=O)C(C)(C)c2cc(S(=O)(=O)N3CCCC3C(=O)NCc3ccc(F)cc3)ccc21 (stereo not given) | 3.8%
Cc1cccc(NC(=O)CSc2cn[nH]n2)c1 | -12.4%
CCOC(=O)N1C2C=CC(C2)N1C(=O)OCC | -15.9%
Cn1c(=O)c2c(ncn2CC(=O)N2CCN(c3ccccc3F)CC2)n(C)c1=O | 1.9%
O=C(Nc1cccc2cccnc12)c1ccc(Br)cc1 | 10.9%
Cc1cc(NC(=O)CCn2c(=O)c3cccn3c3cccnc32)ccc1Br | -0.6%
CCOc1ccc2nc(SCC(=O)Nc3cc4c(cc3C(C)=O)OCO4)[nH]c2c1 | -7.7%
N#CCCCCn1ccc(NC(=O)c2ccc(Cl)cc2O)n1 | -21.1%
O=C(Nc1cccc(-n2cccn2)c1)C1CCCN(Cc2ccccc2F)C1 (stereo not given) | 16.4%
CCC(Cc1ccccc1)NS(=O)(=O)c1ccc2c(c1)NC(=O)CS2 (stereo not given) | 11.8%
COC(=O)c1cc(C(=O)N2CCN(c3cccc(C)c3C)CC2)cc([N+](=O)[O-])c1 | 12.6%
CN(C)CCCN(C(=O)CCOc1ccccc1)c1nc2ccc(F)cc2s1 | ?
Cc1ccc(CN2CC(C(=O)N3CC=C(c4ccccc4)CC3)CC2=O)cc1 (stereo not given) | -7.4%
O=C(CCC(=O)N1CCCc2ccccc21)N1CCN(S(=O)(=O)c2ccccc2)CC1 | -0.9%
N/C(=N\OC(=O)Cc1ccccc1[N+](=O)[O-])c1ccc(Br)cc1 | -1.9%
Cc1ccc(-c2nc3ccccc3o2)cc1NC(=O)c1ccc2c(c1)OCO2 | -18.8%
O=C(NCCn1cc(SCc2cccc(F)c2)c2ccccc21)c1cccc(C(F)(F)F)c1 | ?
COc1cccc2sc3ccc(C#Cc4ccc(N)cc4)cc3c(=O)c12 | 9.9%
CC(=O)Oc1ccccc1N(C(C)=O)S(=O)(=O)c1cccc([N+](=O)[O-])c1 | -0.4%
Cc1c(C(=O)OCCOC(C)C)[nH]c2c1C(=O)CC(C)(C)C2 | -14.4%
O=C(Nc1cc(-c2ccc(F)c(F)c2)no1)c1ccccc1F | 7.9%

# Reprinted at random: 7 entries already listed.
Structure | VDR inh
Cc1cc(NC(=O)CCn2c(=O)c3cccn3c3cccnc32)ccc1Br | -0.6%
O=C(Nc1cccc(-n2cccn2)c1)C1CCCN(Cc2ccccc2F)C1 (stereo not given) | 16.4%
O=C(NCCn1cc(SCc2cccc(F)c2)c2ccccc21)c1cccc(C(F)(F)F)c1 | ?
Cc1cccc(NC(=O)CSc2cn[nH]n2)c1 | -12.4%
CCC(Cc1ccccc1)NS(=O)(=O)c1ccc2c(c1)NC(=O)CS2 (stereo not given) | 11.8%
O=C(Nc1cc(-c2ccc(F)c(F)c2)no1)c1ccccc1F | 7.9%
Cc1ccc2nc3c(c(Nc4ccccc4)c2c1)CCC3 | 4.5%

# Following part
Structure | VDR inh
CN(Cc1ccccc1)C(=O)CSc1nc(-c2ccc(F)cc2)cc(C(F)(F)F)n1 | -20.0%
N#Cc1ccc2c(c1)nc1ccccn12 | 0.5%
CCNc1nc(NC(C)C)nc(N(n2cnnc2)S(=O)(=O)c2ccc(C)cc2)n1 | 4.7%
Cc1cc(C)cc(NC(=O)N2CCC(CN3CCc4ccccc4C3)CC2)c1 | 15.4%
COc1ccccc1C1=NS(=O)(=O)N(C)C(C(=O)Nc2cc(OC)c(OC)c(OC)c2)=C1 | 4.9%
COc1ccccc1-c1oc2ccccc2c1-c1ccc2c(c1)OCO2 | 3.0%
CCN(CC)S(=O)(=O)c1cccc(C(=O)NC(C)C(c2cccs2)N2CCCC2)c1 (stereo not given) | -8.7%
Cc1ccc(Oc2cc(C)nc(-c3ccccc3O)n2)cc1 | -3.0%
Cn1cnc2cc(NCc3ccccc3O)ccc21 | -5.4%
O=C(O)c1cn(-c2ccccc2)nc1-c1cccnc1 | -3.7%
CCc1ccc(OC(=O)c2sc3ncn(Cc4cccc(F)c4)c(=O)c3c2C)cc1 | 6.8%
O=C1c2ccccc2C(=O)N1CCCN1C(=O)c2ccccc2C1=O | 9.9%
COC(=O)c1ccccc1NC(=O)CN(c1ccc(Cl)cc1)S(=O)(=O)c1ccc(OC)cc1 | 4.9%
CCC(Oc1ccc(C)c(C)c1)C(=O)O (stereo not given) | 1.4%
O=C(CN1CCCCC1)Nc1scc2c1c(=O)oc1ccccc12 | -18.2%
COc1ccc(C)cc1Nc1nc(-c2cccc(Cl)c2)c2c(n1)-c1ccccc1OC2 | 4.4%
CCC(CC)C(=O)N1CC(=O)Nc2ccc(F)cc2C1c1ccccc1 (stereo not given) | 5.6%
CC(C)C[C@@H](CN1CCCC1CN1C(=S)NC[C@@H]1Cc1ccc(O)cc1)N1C[C@H](Cc2ccc(O)cc2)N(CC2CCCCC2)C1=S (stereo not given in full) | -22.1%
COc1cccc(/C=C/C(=O)OCC(=O)NCc2ccco2)c1OC | 10.3%
O=C(c1ccccc1-c1nc(-c2ccccc2Cl)no1)N1CCOCC1 | -10.4%
CCOc1ccccc1NC(=O)Cn1c(=O)n(CCCC(=O)NCCOC)c(=O)c2cc(OC)c(OC)cc21 | -11.9%
O=C(Cc1ccc(Br)cc1)NC1CCCCC1 | 10.0%
O=C(Cn1c2ccccc2c(=O)c2ccccc21)N/N=C/c1cc([N+](=O)[O-])ccc1N1CCCCC1 | 0.6%
C=CCn1c(N)c(C(=O)OCC)sc1=S | 11.4%
Cc1sc2nc(-c3cccnc3)[nH]c(=O)c2c1-c1ccccc1 | -14.0%

# Next structures follow.
structure	VDR inh
Cc1ccc(CNC(=O)CCCCn2c(=O)c3ccccc3n(Cc3c(C)cc(C)cc3C)c2=O)cc1	-1.3%
CCOC(=O)C(CC)Sc1ncnc2sc3c(c12)CCCC3 (stereo not given)	-10.7%
O=C(CCn1nc(-c2ccc(Cl)cc2)ccc1=O)N1CCN(c2ccccn2)CC1	2.5%
Cc1cnc(CNc2ncncc2-c2ccoc2)cn1	?
NS(=O)(=O)c1ccc(NC(=O)c2cc(-c3ccccc3O)n[nH]2)cc1	9.1%
COc1ccc(N(Cc2cc3ccccc3[nH]c2=O)S(=O)(=O)c2ccc(C)cc2)cc1	-15.6%
Cc1ccc(Oc2ncccc2/C=N/OCc2ccc(Cl)c(Cl)c2)cc1	-2.0%
CCCN1CCN(CCCNC(=S)Nc2ccc3nc(N4CCN(CC)CC4)cc(C)c3c2)CC1	0.6%
O=C(O)c1cnn(-c2nc(-c3ccc(Br)cc3)cs2)c1C(F)(F)F	?
O=C1CCCC1C(=O)Nc1ccc2ccccc2c1 (stereo not given)	-7.9%
COc1ccccc1N(CC(=O)Nc1ccc2c(c1)OCO2)S(=O)(=O)c1ccc(C)cc1	-12.7%
CCCSc1ccc([C@H]2N[C@@](C)(C(=O)OC)[C@H]3C(=O)N(C)C(=O)[C@@H]23)cc1	-9.3%
CCOC(=O)c1ccccc1NC(=O)CN(c1cc(C(F)(F)F)ccc1Cl)S(C)(=O)=O	-16.7%
CCc1cccc(NC(=O)CCCn2nc(C)c3c(C)n(-c4ccccc4)nc3c2=O)c1	-11.1%
O=C(CNC(=O)c1ccc(N2C(=O)c3ccccc3C2=O)cc1)OCC(=O)c1ccc(Cl)cc1	10.0%
CCN(CC)CCNC(=O)Cc1c(C(=O)O)n(CC)c2ccccc12	6.0%
O=C(CNC(=O)c1ccc(Cl)cc1Cl)OCCOc1ccccc1	-9.4%
Cc1cccc2c1N(CCOc1ccc(C(C)(C)C)cc1)C(=O)C2=O	-18.7%
Cc1nc2scc(C)n2c(=O)c1S(=O)(=O)NCC1CCN(Cc2ccc(Cl)cc2)CC1	-7.6%
COc1ccccc1Nc1ccc([N+](=O)[O-])cc1N	-12.1%
O=C(O)C1CCCCC1C(=O)N1CCN(S(=O)(=O)c2ccc(F)cc2)CC1 (stereo not given)	-8.6%
O=C(O)C1C2CCC(C2)C1C(=O)N1CCCC1 (stereo not given)	-13.7%
CCc1ccc(CNCCNCC(C)O)cc1 (stereo not given)	-16.0%
Cc1ccc(C(=O)N(c2ccccc2)C2CC(C)N(C(=O)c3ccco3)c3ccccc32)cc1 (stereo not given)	-12.5%
COc1ccc(S(=O)(=O)N2c3cc(Cl)ccc3Oc3nc4ccccc4nc32)cc1	-9.1%
CC1=C(C(=O)Nc2ccc(C)cc2)C(c2ccc(C)o2)C2=C(CC(C)(C)CC2=O)N1 (stereo not given)	-2.6%
O=c1[nH]c2cc3c(cc2cc1CN(Cc1cccs1)Cc1nnnn1Cc1ccco1)OCCO3	?
COc1ccc(NC(=O)CCn2c(=O)c3cccn3c3ccccc32)c(OC)c1	3.4%&10.7%
Cc1ccc(NC(=O)Cn2cnc3c(=O)n(C)c(=O)n(C)c32)c(C)c1	17.3%
Clc1ccccc1CN(Cc1ccco1)Cc1nnnn1C1CCCC1	-18.1%

# (list continues)
structure	VDR inh
O=C(O)CCc1nn2c3ccccc3nc2n(-c2ccccc2)c1=O	13.7%
Cc1ccc(S(=O)(=O)N2CCOCC2)cc1NS(=O)(=O)c1ccc(F)c(F)c1	4.7%
CCOc1ccc(NC2=CC(=O)CC(c3ccco3)C2)cc1 (stereo not given)	4.7%
O=S(=O)(/C=C/c1ccccc1)c1ccccc1	3.5%
COc1ccc(-c2noc(N3CCC(C(=O)Nc4cccc(C)c4C)CC3)n2)cc1	14.7%
OCCCc1cn(CC2CCCCC2)nn1	14.0%
COc1ccc(CN(Cc2ccc(C(=O)O)cc2)C(=S)Nc2cccc(C)c2)cc1OC	25.3%
COc1ccc(-c2nn(-c3ccccc3)cc2C(=O)Nc2nccs2)cc1	-8.0%
CCn1cc(C(=O)Nc2ccc(OC)c(S(=O)(=O)N3CCCCC3)c2)c(=O)c2ccc(C)nc21	-10.5%
COc1cccc(C(=O)N/N=C(/c2ccccc2)c2ccccn2)c1	14.3%
Nc1ccc2c(c1)C(=NO)c1ccccc1-2	-2.1%
CC(C)(C)c1ccc(S(=O)(=O)NCC(=O)Nc2ccc(-c3nc4ccccc4s3)cc2)cc1	-7.1%
Cc1ccc(S(=O)(=O)N/N=C(\c2ccccc2)C2CC2)cc1	11.8%
O=C(O)C[C@H]1c2cc(F)ccc2S(=O)(=O)N1C1CCN(Cc2ccccc2)CC1	-26.2%
CC(Oc1ccccc1)c1nnc(SCC(=O)NC2CC2)n1C (stereo not given)	8.4%
CCCN1CNC(=S)N(c2ccc(C(=O)OCC)cc2)C1	0.7%
CC(=O)Nc1ccc(OC(=O)Oc2ccc(NC(C)=O)cc2)cc1	-7.6%
CC(C)OC(=O)c1c(NS(=O)(=O)c2ccccc2)sc2c1CCCC2	?
Nc1c(Br)cc2c([nH]c(=O)c3ccccc32)c1Br	-5.0%
Cc1ccc(NC(=O)CSc2nc3c(c(=O)[nH]2)CN(Cc2ccc(F)cc2)CC3)cc1C	10.2%
CCOC(=O)c1cccc(NC(=O)CN2C(=O)CC(C)(C)Sc3ccccc32)c1	-7.2%
O=S(=O)(c1ccccc1)N1CCN(Cc2ccc(Cl)cc2)CC1	-7.2%

# Bioassay records from PubChem.
